# Source: PubChem BioAssay (National Center for Advancing Translational Sciences (NCATS))
# Six1-Eya2 blk = Six1/Eya2 interaction inhibition; Q15475+O00167; AlphaScreen GST-Six1/His-Eya2 binding, biochemical; active compounds read low; control for the full effect not named in the record; activity change, % (no concentration beside the values); hit rate 0.56% among 360,000; AID 651725; in the data active = activity change below about -65%; inconclusive = about -30% to -65%; inactive = above about -30%; also: % is scaled to controls: 0 for no effect and ±100 for the full control effect
#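 Homogeneous AlphaScreen proximity assay pairing GST-Six1 with His-tagged Eya2 (added as 5X mix: 250 nM and 500 nM) in 50 mM Tris pH 8.0, 300 mM NaCl, 1 mM TCEP. Glutathione donor and nickel acceptor beads; 1 h, 37 °C, dark.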
# D2 agonist = activates the human D2 dopamine receptor. P14416. DiscoveRx PathHunter D2 beta-arrestin, luminescence, 90 min; 100% = 57 uM dopamine signal. activation, % (test concentration not listed). hit rate 0.084% among 360,000; in the data active = activation above about 40%; inconclusive = about 15% to 40%; inactive = below about 15%; also: compound concentration not given in the record; the text of the record calls up to 30% inactive
# Target sequence (P14416 whole entry, looked up): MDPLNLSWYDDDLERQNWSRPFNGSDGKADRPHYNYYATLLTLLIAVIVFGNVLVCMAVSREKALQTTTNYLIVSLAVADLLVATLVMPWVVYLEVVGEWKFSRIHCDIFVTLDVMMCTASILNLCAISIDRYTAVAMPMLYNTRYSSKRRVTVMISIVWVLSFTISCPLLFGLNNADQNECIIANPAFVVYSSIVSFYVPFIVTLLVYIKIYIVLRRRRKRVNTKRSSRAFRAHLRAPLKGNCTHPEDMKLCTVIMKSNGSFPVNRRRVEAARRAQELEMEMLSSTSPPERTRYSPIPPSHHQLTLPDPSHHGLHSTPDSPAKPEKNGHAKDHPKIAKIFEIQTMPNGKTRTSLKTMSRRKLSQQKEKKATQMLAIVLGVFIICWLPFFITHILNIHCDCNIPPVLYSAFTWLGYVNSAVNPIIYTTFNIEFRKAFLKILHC
#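 DiscoveRx PathHunter D2 beta-arrestin cells (2,100/well) attached overnight, then compound-stimulated 90 min at 37 C in HBSS/10 mM HEPES/0.1% Tween-20 buffer; beta-galactosidase complementation read by luminescence after 1 h at ambient temperature. Dopamine 57 uM final (EC100) as control.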
# TRPML1 blocker = blocks the human TRPML1 channel; TRPML1-inducible cells, Ca2+ dye fluorescence, FDSS; active compounds read low; inhibition of EC80 agonist-evoked calcium signal; activity change, negative = inhibition, % (concentration not given with the values); hit rate 0.02% among 390,000; in the data active means activity change below about -50%; inconclusive means about -30% to -50%; inactive means above about -30%;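 also: stimulus is agonist 54-4 at its EC80 concentration; % is scaled to controls: 0 for no effect and ±100 for the full control effect; the text of the record puts the active cut at -80%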
# Target sequence (Q9GZU1 whole entry, looked up): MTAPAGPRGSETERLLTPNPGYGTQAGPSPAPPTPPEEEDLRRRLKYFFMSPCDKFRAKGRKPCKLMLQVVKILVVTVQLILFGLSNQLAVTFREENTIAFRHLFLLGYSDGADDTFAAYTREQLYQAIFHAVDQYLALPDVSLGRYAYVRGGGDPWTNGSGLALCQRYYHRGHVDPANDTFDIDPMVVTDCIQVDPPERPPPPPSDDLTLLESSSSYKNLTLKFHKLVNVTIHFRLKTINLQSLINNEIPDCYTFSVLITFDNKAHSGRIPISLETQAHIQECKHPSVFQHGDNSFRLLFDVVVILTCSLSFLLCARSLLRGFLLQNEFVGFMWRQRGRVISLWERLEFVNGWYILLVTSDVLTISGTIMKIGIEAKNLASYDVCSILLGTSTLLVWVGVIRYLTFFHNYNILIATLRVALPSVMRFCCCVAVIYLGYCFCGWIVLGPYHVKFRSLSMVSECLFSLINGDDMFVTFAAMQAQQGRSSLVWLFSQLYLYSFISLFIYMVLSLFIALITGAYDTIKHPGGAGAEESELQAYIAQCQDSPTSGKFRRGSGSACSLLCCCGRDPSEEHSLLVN
#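 Calcium fluorescence in TRPML1-DL cells induced overnight with Tet: a 110 s read after compound pin addition, then a 110 s antagonist read after challenge with 54-4 at 4 uM final (EC80).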
# PINK1 expr mod = modulators of PINK1 expression | PINK1 immunofluorescence, high-content cytometry, 24 h | Potency, µM (titrated, usually from 76.6 µM), inactives show at the highest dose activation (PINK1 increase), hits mostly activators | AID 624263 | hit rate 0.2% among 410,000; active = well fitted activation curve with a large enough effect; inconclusive = small, poorly fitted or top-dose-only effect; inactive = flat fitted curve, though single readings scatter; cell line not stated here;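 also: potency is read from the fitted curve at half-maximal effect; % of control where 0% means no effect; nearly all actives have a fitted effect of over 65% in size; a mitochondrial uncoupler was the plate control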
#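 PINK1 protein level read as immunofluorescence by microplate cytometer in a fixed, stained stable cell line after 24 h exposure to five compound concentrations, with CCCP as control.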
# TRPML1 ag = human mucolipin-1 channel agonism; Q9GZU1; hit rate 0.12% among 410,000; TRPML1-expressing cells, Ca2+ dye fluorescence, FDSS; host cell line not named in the record; reference of the full effect not given here; activation, % (no concentration beside the values); AID 624414; in the data active = activation above about 50%; inconclusive = about 30% to 50%; inactive = below about 30%; also: 0% is about no effect; the text of the record puts the active cut at 80%
#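 Calcium fluorescence on an FDSS kinetic reader gave the read-out. Tet-induced TRPML1-DL cells were plated overnight, dye-loaded (Ca8 with quencher, 45-90 min, room temperature, dark), then read 110 s after compound addition, and again 110 s after 4uM final 54-4 (EC80).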
# CtBP-E1A blk = inhibitors of CtBP/E1A interaction; hit rate 0.49% among 340,000; AID 651724; activity change, % (concentration not given with the values); AlphaScreen GST-E1A/His-CtBP binding, 1536-well; active compounds read low; control for the full effect not named in the record; in the data active means activity change below about -65%; inconclusive means about -30% to -65%; inactive means above about -30%; also: % is scaled to controls: 0 for no effect and ±100 for the full control effect
#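 Homogeneous bead-based format: GST-tagged E1A captured on glutathione donor beads, His-tagged CtBP on nickel acceptor beads; compounds precede bead addition by 2 h at 37 °C.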
# * hit, by the source's call; ? = inconclusive; · = not tested or not shown; [ ] = another dose, or the depositor's remark.
SMILES,Six1-Eya2 blk,D2 agonist,TRPML1 blocker,PINK1 expr mod,TRPML1 ag,CtBP-E1A blk
Cc1cccc(OCC(=O)Nc2cc(C)ccc2O)c1,-6,6.2,-12,-1.0%,1.2,0
Cn1ccc2c(N(c3ccccc3)C3CCCCC3)cc3c(c21)C1CCC3O1 (stereo not drawn),-11,-6.4,5,6.4%,0.5,0
Cc1ccccc1NC(=O)CSc1nnc(C2CC2)n1CC1CCCO1 (stereo not drawn),9,-5.2,55,-0.4%,-1.3,20
Cc1csc(NC(=O)CN2C(=O)COc3ccc(Cl)cc32)n1,-1,-1.4,-17,-0.5%,1.4,2
CC(C)C1CC(CCNCc2ccc(N(C)C)cc2)(c2ccccc2)CCO1 (stereo not drawn),-65*,-2.7,9,-4.9%,-0.6,?
COc1cccc(CN2C(=NC(=O)C3CC3)SC3CS(=O)(=O)CC32)c1 (stereo not drawn),4,0.9,-7,-0.7%,-0.5,-4
CCOc1ccc(CN(C)Cc2cc(=O)oc3cc(C)c(Cl)cc23)cc1,-5,-0.2,5,3.1%,2.1,7
COc1ccc(CNC(=O)C(=O)NCC2OCCN2S(=O)(=O)c2ccc3c(c2)OCCO3)cc1 (stereo not drawn),-14,-2.8,4,0.6%,-0.1,1
Cc1cc2oc(=O)cc(CN3CCCCC3)c2cc1C(C)C,7,1.3,26,1.1%,1.6,-1
CC1=CC(C)C2(CO)COC(c3cccnc3)C1C2C (stereo not drawn),-1,4.7,-12,2.5%,0.4,·
CCc1nc2cccnc2n1-c1ccc(CC(=O)Nc2c(C)cccc2C)cc1,·,·,-22,0.2%,2.4,·
C=CCn1c(C)cc(C(=O)COc2ccc(S(=O)(=O)N3CCCC3)cc2[N+](=O)[O-])c1C,-15,3.5,10,-0.1%,2.6,-10
COc1ccc(-c2csc(N(CCCN3CCOCC3)C(=O)c3ccco3)n2)cc1,?,-1.5,62,-1.4%,0.8,?
CCOc1ccccc1/C=C(/NC(=O)c1ccccc1)C(=O)NCC(=O)O,-6,-6.0,-2,5.6%,0.2,-14
CC(C)[C@H](NC(=O)[C@@H]1CSC2c3ccccc3C(=O)N21)C(=O)NC1CCCCC1 (stereo partly drawn),1,2.7,11,-0.3%,-1.4,7
Cc1ccc[n+](CC(=O)Nc2cc(C(F)(F)F)ccc2Cl)c1,0,0.2,6,-0.9%[38.3 µM],-0.5,10
O=C1CN(C(=O)CCCc2c[nH]c3ccccc23)c2ccccc2N1,-1,-0.5,-1,-0.1%,0.0,-2
CCOC(=O)C(=N/O)/C(C)=N/NC(=O)C(=O)Nc1ccc(Cl)cc1,-6,-1.0,-11,1.6%,-0.6,·
COc1ccc(/C=N/N=C2\SC(CC(=O)O)C(=O)N2c2ccccc2)cc1 (stereo not drawn),6,-0.7,24,-0.7%,-0.2,2
Cc1cccc(-n2nc([N+](=O)[O-])c(=NCc3cccnc3)n2O)c1,-4,?,3,-1.8%[38.3 µM],2.9,18
COCCNCCCOc1ccc(Cl)cc1Br,-8,-2.3,-2,-1.2%,0.4,·
CCCc1cc(CNC(=O)C2CCC(=O)N(Cc3ccccc3F)C2)on1 (stereo not drawn),-6,-2.6,-3,1.6%,0.6,3
CC(c1ccccc1)N1CC(C(=O)Nc2nccs2)CC1=O (stereo not drawn),-2,-1.4,1,2.6%,-0.4,4
c1ccc(Oc2cccc(OCCCCSc3ncccn3)c2)cc1,153,-2.4,2,2.6%,3.1,137
CCCOc1ccc(-c2c(C(=O)N/N=C/c3ccccc3OCC)nnn2-c2nonc2N)cc1,8,-1.4,6,2.4%,0.7,8
CCOC(=O)C1C(c2ccccc2)C(C(=O)OCC)C1c1ccccc1 (stereo not drawn),3,1.1,3,-1.9%[38.3 µM],-0.5,6
Cc1ccc(COC(=O)c2ccc3c(c2)C(=O)N(CCCN2CCOCC2)C3=O)cc1,-1,-4.4,7,2.7%,0.5,-4
O=C(CN1CCN(C2CCCCC2)C(=O)C1=O)Nc1ccc(Cl)cc1,·,·,-8,1.3%,1.2,·
CC(C)Cc1nnc(NC(=O)c2ccc(-n3cncn3)c([N+](=O)[O-])c2)s1,6,-1.7,-5,4.6%,-0.3,9
COCCNC(=O)C1CC(c2ccc(F)cc2)=NO1 (stereo not drawn),4,-0.1,-14,1.9%,0.0,-8
Cc1cc(C(=O)OCC(=O)N2CCC(c3ccccc3)=N2)ccc1[N+](=O)[O-],-1,-1.1,7,15%,-0.7,-4
COC(=O)CN1C(=O)CSc2ccc(S(=O)(=O)Nc3ccc(F)c(Cl)c3)cc21,·,·,23,3.0%,-0.1,·
O=C(NCCc1ccc(C(F)(F)F)cc1)C1COc2ccccc2O1 (stereo not drawn),-1,-2.6,-4,-1.0%,-0.8,13
O=C(Cc1ccccc1)N/N=C/c1cccn1-c1ccc([N+](=O)[O-])cc1,?,0.5,-9,3.5%,0.3,-21
O=[N+]([O-])c1ccc2nc(Cl)nc(-c3ccccc3)c2c1,?,1.7,-3,-0.1%,-0.4,·
COc1ccc(-c2cc(C(=O)NC3CCCC3)c3ccccc3n2)cc1,4,-2.6,·,6.1%,·,·
Cc1ccccc1NC(=O)Cc1nc(COC(=O)CCc2ccccc2)cs1,6,-2.1,-14,-1.6%,-0.4,8
C=CCNC(=S)N1CCN(CCN=Cc2c(C)[nH]n(-c3ccc([N+](=O)[O-])cc3)c2=O)CC1,12,-0.1,9,-1.2%,1.4,-12
COc1ccc(Cl)cc1NC(=S)N1CCN(c2ncccn2)CC1,-8,2.4,-11,0.1%,-0.6,-1
COC(=O)Cc1cc(=O)[nH]c(/N=C(\N)Nc2ccc(C(C)C)cc2)n1,7,3.1,8,-0.2%,-1.2,-14

# Among those listed so far, three have an NH in an aromatic ring:
SMILES,Six1-Eya2 blk,D2 agonist,TRPML1 blocker,PINK1 expr mod,TRPML1 ag,CtBP-E1A blk
O=C1CN(C(=O)CCCc2c[nH]c3ccccc23)c2ccccc2N1,-1,-0.5,-1,-0.1%,0.0,-2
C=CCNC(=S)N1CCN(CCN=Cc2c(C)[nH]n(-c3ccc([N+](=O)[O-])cc3)c2=O)CC1,12,-0.1,9,-1.2%,1.4,-12
COC(=O)Cc1cc(=O)[nH]c(/N=C(\N)Nc2ccc(C(C)C)cc2)n1,7,3.1,8,-0.2%,-1.2,-14

# Next part:
SMILES,Six1-Eya2 blk,D2 agonist,TRPML1 blocker,PINK1 expr mod,TRPML1 ag,CtBP-E1A blk
CC(=O)c1ccc(S(=O)(=O)NCCC(=O)N2CCN(c3ccccn3)CC2)cc1,2,3.8,-3,2.3%,-1.1,·
O=C(NCCc1nc2ccccc2[nH]1)/C(=C/c1ccc2c(c1)OCO2)NC(=O)c1ccc(Cl)cc1Cl,-29,-1.1,21,-0.8%,-0.5,-13
COc1cc(Nc2c3c(nc4ccccc24)CCC3)cc(OC)c1OC,0,-2.2,-1,26%,-1.7,-3
CC(Cc1cccs1)NC(=S)Nc1ccccc1 (stereo not drawn),0,-3.7,9,1.8%,-0.2,0
COc1ccc(NC(=O)Nc2ccc(C)cc2Br)c(OC)c1,-6,4.6,27,1.7%,2.2,-9
O=C(COC(=O)c1ccc(CNS(=O)(=O)c2ccc(F)c(Cl)c2)cc1)NCC1CCCCC1,1,1.3,8,5.3%,0.7,3
CCC(C)NC(=O)Cn1c(=O)n(Cc2ccc(C(=O)NCc3ccc(C)cc3)cc2)c(=O)c2ccccc21 (stereo not drawn),·,·,-7,-0.5%,-0.1,·
Cn1c(=O)c2c(ncn2CCCc2ccccc2)n(C)c1=O,-3,-3.2,-4,-1.1%,-0.9,0
CCCCCn1nc(C)c2c(C)cc(=O)[nH]c21,5,0.2,5,1.0%,0.1,-1
O=C(Cc1ccc(Cl)cc1)NNC(=O)C(=O)NC1CCCCC1,1,-1.4,16,-1.2%,0.0,3
CCOc1ccc(NC(=O)Nc2nnc(CC(=O)NCc3ccccc3)s2)cc1,-14,0.3,4,16%,0.3,-2
COc1cc2c(cc1NC(=O)c1ccc3c(c1)OCO3)oc1ccccc12,5,-3.0,-4,·,0.7,10
CC(=O)Oc1cc(OC(C)=O)c2c(=O)c(-c3ccc4c(c3)OCCCO4)c(C)oc2c1,-8,-4.5,-4,-1.5%,-0.4,9
Cc1ccc(NC(=O)NCC2CCN(Cc3cc(C)ccc3Cl)CC2)c(C)c1,15,-5.4,96,4.9%,0.3,5
CCCc1cc(=O)[nH]c(SCC(=O)Nc2cccc3ccccc23)n1,-5,3.7,-10,1.1%,-0.3,4
CCN(CC)CCN1C(=O)c2oc3ccccc3c(=O)c2C1c1ccccc1 (stereo not drawn),0,-1.3,-3,7.5%[38.3 µM],0.0,3
CCCn1nnc(NC(=O)c2cccc(OCC(C)C)c2)n1,3,-4.6,-1,3.8%,-0.1,5
CCN(C(=O)Cn1nc(C)c([N+](=O)[O-])c1C)C1CCS(=O)(=O)C1 (stereo not drawn),0,-2.8,-16,-3.9%,1.9,-13
Cc1ccc(S(=O)(=O)N2CCCCC2)cc1NC(=O)C1=NN(c2ccccc2)C(=O)CC1,17,-3.3,12,6.5%,-1.5,·
CC1=C(C(=O)Nc2ccc(F)cc2)C(c2ccc(C)o2)C2=C(CC(C)(C)CC2=O)N1 (stereo not drawn),6,-3.8,2,-0.6%,0.0,-1
O=C(Oc1ccc(Br)cc1C(=S)N1CCOCC1)c1ccc([N+](=O)[O-])cc1[N+](=O)[O-],-94*,?,-3,8.3%,-1.8,?
CN(CC(=O)Nc1ccccc1Br)Cc1nc2ccccc2c(=O)[nH]1,2,-2.8,-23,-2.7%,0.8,7
CN(C)/N=C/c1ccc(OC(=O)c2cccc([N+](=O)[O-])c2)cc1,-24,-1.5,-13,0.5%,0.3,3
CNc1nc(-c2ccc3c(c2)CCN3C(=O)c2ccccc2F)cs1,-20,0.0,-28,4.7%,1.4,·
COc1ccccc1NS(=O)(=O)c1cccc(C(=O)N/N=C/c2ccc(C)o2)c1,-20,-1.7,9,0.4%,-0.2,-12
CC(NC(=O)c1cc2sccc2n1C)c1ccc2c(c1)OCCO2 (stereo not drawn),-21,-4.6,1,2.4%,-0.3,-7
CN(Cc1ccc(C(F)(F)F)cc1)C(=O)c1ccc2ccccc2n1,0,-1.2,18,1.3%,0.3,6
CSc1cccc(NC(=O)C2CCN(c3nc4ccccc4[nH]3)CC2)c1,·,·,3,-1.1%,0.1,·
CCn1nc(C)cc1C(=O)NC1CCCc2c1cnn2-c1ccc(C)c(C)c1 (stereo not drawn),2,0.4,-3,3.5%,0.7,-3
Cc1occc1C(=O)NC(C)c1ccc2c(c1)OCO2 (stereo not drawn),-2,1.1,29,19%[38.3 µM],3.2,6
Cc1nc2ccc(Cl)cc2nc(C)/c1=N\O,1,13,-18,-2.0%,1.7,-14
Cn1ccnc1SCc1ccc([N+](=O)[O-])cc1,-2,-1.2,-1,?,0.8,1
CCOc1ccc2nc(NC(=O)c3nc(SC(C)C)ncc3Cl)sc2c1,·,·,0,?,-0.5,·

# Shown as a hit in Six1-Eya2 blk (from the list above):
smiles | Six1-Eya2 blk | D2 agonist | TRPML1 blocker | PINK1 expr mod | CtBP-E1A blk
CC(C)C1CC(CCNCc2ccc(N(C)C)cc2)(c2ccccc2)CCO1 (stereo not drawn) | -65* | -2.7 | 9 | -4.9% | ?
O=C(Oc1ccc(Br)cc1C(=S)N1CCOCC1)c1ccc([N+](=O)[O-])cc1[N+](=O)[O-] | -94* | ? | -3 | 8.3% | ?
